From PubChem
LANA-H2B inh – blocks KSHV LANA binding to histone H2A/H2B | actives 0.6% (n = 320,000) | AID 2629 | inhibition, % (test concentration not listed) | cell-free LANA-H2A/H2B peptide, fluorescence polarization; in the data active = inhibition mostly above about 10%, no sharp cut-off; inactive = mostly below about 6.7%;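 note: stock transfer was 7.5 nL into about 10 µL; 0% = median of vehicle wells and 100% = median of positive control wells; one replicate is shown; the record names a cut of 25% in any replicate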
FGF22 binding – FGF22 (human) thermal shift binding | AID 651658 | calls only at 9.99 µM | recombinant FGF22 thermal shift, SYPRO orange fluorescence; percent of sucrose octasulfate shift, DMSO zero | actives 1.5% (n = 340,000);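 active = melting point raised past a set limit in the mean and every replicate; three in four hits are not shown here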
Target sequence (Q9HCT0 whole entry, looked up): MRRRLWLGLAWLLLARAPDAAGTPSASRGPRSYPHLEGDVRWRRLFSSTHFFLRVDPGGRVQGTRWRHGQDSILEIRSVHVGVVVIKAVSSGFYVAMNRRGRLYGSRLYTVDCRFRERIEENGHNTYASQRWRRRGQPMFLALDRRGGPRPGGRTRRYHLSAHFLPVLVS
ALR H2O2 inh – blocks human ALR sulfhydryl oxidase activity | inhibition, % (concentration not given with the values) | actives 3.8% (n = 290,000) | P55789 | purified ALR, DTT oxidation, H2O2 HRP-luminol luminescence;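 active = mean and each replicate at 75% or more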;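 note: stock transfer was 7.5 nL into about 7.5 µL; 0% = neutral wells and 100% = wells with inactivated enzyme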
Target sequence (P55789 whole entry, looked up): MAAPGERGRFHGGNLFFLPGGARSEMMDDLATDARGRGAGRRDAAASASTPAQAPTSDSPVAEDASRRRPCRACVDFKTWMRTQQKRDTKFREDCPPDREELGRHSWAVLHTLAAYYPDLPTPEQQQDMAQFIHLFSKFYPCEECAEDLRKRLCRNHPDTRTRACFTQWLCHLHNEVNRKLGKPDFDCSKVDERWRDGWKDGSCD
Ecoli growth – blocks Escherichia coli growth. OD600, 23 h; stronger effect = lower value. OD600 absorbance (test concentration not listed). actives 0.21% (n = 330,000). AID 1053175;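 active = OD600 absorbance below the run mean of sample wells minus 3.6 SD, in any replicate, cut at about 0.56 in these data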;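 note: stock transfer was 300 nL into about 60 µL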
HNF4A DNA FP – change in binding of human HNF4 alpha to DNA. P41235. HNF4a-FITC DNA binding, fluorescence polarization, 1 h. activity change, % at 10 µM. actives 0.3% (n = 360,000); in the data active = activity change above about 30%, passing the limit was not always enough;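 note: controls were the assay level and a saturating level of protein; the project sought stronger binding though the title names inhibitors; some compounds called inactive have numbers as strong as hits; positive values seem to mean higher polarization but the record does not say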
B2AR ag – activates human beta-2 adrenergic receptor causing internalization. actives 0.43% (n = 340,000). Am2.2-beta2AR cells, FAP receptor internalization, flow cytometry; reference of the scale not given here. response, % (concentration not given with the values). AID 504454;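 active = response above a set limit, near 3 SD of response in nonfluorescent compounds, cut at about 42% in these data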;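 note: stock transfer was 100 nL into about 11 µL; a reference agonist was the positive control; negative values mostly stem from fluorescent compounds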
Target sequence (P07550 whole entry, looked up): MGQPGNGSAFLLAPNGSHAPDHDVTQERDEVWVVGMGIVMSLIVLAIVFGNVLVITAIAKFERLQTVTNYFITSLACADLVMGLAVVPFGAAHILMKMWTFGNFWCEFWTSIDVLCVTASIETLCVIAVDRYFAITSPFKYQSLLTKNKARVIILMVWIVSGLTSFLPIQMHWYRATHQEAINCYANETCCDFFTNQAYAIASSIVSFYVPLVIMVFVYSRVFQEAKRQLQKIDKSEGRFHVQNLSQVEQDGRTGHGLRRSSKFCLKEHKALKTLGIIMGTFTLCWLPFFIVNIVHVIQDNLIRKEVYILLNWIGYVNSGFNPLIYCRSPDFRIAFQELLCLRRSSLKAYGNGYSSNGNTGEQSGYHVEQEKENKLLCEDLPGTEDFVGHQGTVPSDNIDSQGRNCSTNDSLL
UCH37 inh – blocks the human deubiquitinase UCH37. Q9Y5K5. purified proteasome/UCH37, Ub-AMC cleavage fluorescence. inhibition, % (concentration not given with the values). actives 0.33% (n = 330,000). AID 588478;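 active = mean of two replicates above 20%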;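 note: 0% = compound-free wells with enzyme and 100% = wells lacking proteasome; stock transfer was 100 nL into about 20 µL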
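Material: human UCH37 enzyme supplied as purified proteasome complex / Amount: 0.15 nM proteasome as dispensed / Buffer or medium: pH 7.4 Tris-HCl (50 mM) with ovalbumin, ATP-MgCl2, DTT / Times: preincubation 30 min, reaction 25 min, room temperature / Technique: AMC fluorescence from Ub-AMC cleavage, excitation 355 nm, emission 460 nm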
Numbers without * were called inactive; i = inactive; / = no result given.

1	N#Cc1nc(/C=C/c2ccccc2)oc1NCCCN1CCOCC1
2	Cc1ccc(C)c(OCc2cc(C(=O)N3CCC(N4CCCC(O)C4)CC3)no2)c1 (stereo unspecified)
3	Cc1nc(C(=O)NNC(=O)c2ccc(Cl)cc2)cs1
4	COc1ccc(C)cc1S(=O)(=O)N1CCN(C(=O)c2ncoc2-c2ccc(F)cc2)CC1
5	COc1ccc(S(=O)(=O)N(C)CC(=O)Nc2ccc(C(N)=O)cc2)cc1OC
6	O=C(Cc1c(F)cccc1Cl)NCCc1c[nH]c2ccccc12
7	N#Cc1ccsc1NC(=O)COC(=O)c1ccc(Br)o1
8	CCOC(=O)/C=C1\SCC(=O)N1CC(=O)NCc1cccc(Cl)c1
Compound	1	2	3	4	5	6	7	8
LANA-H2B inh	2.3	2.1	6.3	8.6	3.0	-2.3	1.3	-6.6
FGF22 binding	i	i	i	i	i	i	i	i
ALR H2O2 inh	50.5	-1.8	-19.2	-22.7	/	7.6	1.9	-1.3
Ecoli growth	0.663	0.666	0.672	0.667	0.703	0.621	0.708	0.687
HNF4A DNA FP	-1.5	10.3	4.0	-2.3	3.6	-4.0	8.8	5.2
B2AR ag	-3.6	-2.9	-2.5	1.2	19.6	10.5	4.4	9.7
UCH37 inh	i	4.3	4.4	-1.0	-1.8	3.4	-1.4	0.3

9	CCN(CC)S(=O)(=O)c1cc(NC(=O)COc2ccc(C#N)cc2OC)ccc1C
10	O=C(CSc1nnc(COc2ccc(F)cc2)o1)N1c2ccccc2CCc2ccccc21
11	COc1ccc(-n2c(SCC(=O)Nc3ccc(C(=O)O)cc3)nnc2-c2ccccc2)cc1OC
12	CCN(CC)c1nc(OCCNC(=O)Nc2ccccc2)nc(N(CC)CC)n1
13	O=C(CCC(=O)Nc1ccccc1Cl)NNC(=O)Nc1cccc([N+](=O)[O-])c1
14	O=C(Nc1nncs1)C12CC3CC(CC(C3)C1)C2
15	CN1C(=O)/C(=C/C=C2\SCCN2C)OC1=S
16	COCCn1c(SCC(=O)Nc2ccc(OC)cc2)nnc1-c1ccoc1C
Compound	9	10	11	12	13	14	15	16
LANA-H2B inh	1.8	2.7	5.6	-6.8	-4.4	-3.7	-7.0	-1.7
FGF22 binding	i	/	i	/	i	i	i	i
ALR H2O2 inh	/	4.1	-68.3	-9.7	13.3	-18.6	10.6	-1.1
Ecoli growth	0.71	0.767	0.676	0.755	0.651	0.695	0.727	0.702
HNF4A DNA FP	3.3	-1.0	-2.2	-0.4	-1.5	2.7	160.4	3.0
B2AR ag	2.6	3.2	2.3	0.2	-7.3	-10.4	-3.7	-0.4
UCH37 inh	-1.5	2.9	0.8	4.5	1.1	3.6	10.0	1.5

17	O=C(Nc1nc(-c2ccccn2)cs1)C1COc2ccccc2O1 (stereo unspecified)
18	CC(=O)Nc1ccccc1NC(=O)C/C(C)=N/NC(=O)Cc1cccc2ccccc12
19	CCC(=O)NC(Nc1nc(C)cs1)(C(=O)OC)C(F)(F)F (stereo unspecified)
20	CC(=O)c1ccc(N2CCN(C(=O)c3cc(C)on3)CC2)cc1
21	COCCn1cc(C(=O)N2CCC(C)CC2)c2c3ccccc3n(C)c2c1=O
22	CC1CC(C)CN(CCCNC(=O)c2cc3c(=O)[nH]c4ccccc4c3n2C)C1 (stereo unspecified)
23	COc1cccc(C2CC(c3cccc(Br)c3)n3nc(N)nc3N2)c1 (stereo unspecified)
24	Cc1ccc(Cn2c(=O)cc(C(=O)O)c3ccccc32)cc1
Compound	17	18	19	20	21	22	23	24
LANA-H2B inh	-1.7	2.0	6.2	4.8	6.8	4.7	-0.7	-7.7
FGF22 binding	i	i	/	i	/	i	i	i
ALR H2O2 inh	-3.0	14.3	-3.0	0.9	-2.9	0.1	-19.2	-25.7
Ecoli growth	0.738	/	0.688	0.653	0.644	0.647	0.723	0.708
HNF4A DNA FP	0.9	2.3	1.2	-2.3	-0.7	4.4	1.6	4.5
B2AR ag	-5.5	-7.8	2.5	-1.2	1.3	-0.8	2.7	-1.7
UCH37 inh	4.8	/	2.3	8.3	-143.8	-11.9	-0.2	-8.9

25	CCOC(=O)c1c(C)c(C(=O)OCC)n(C)c1C
26	Cc1ccc(-n2ccnc(SCC(=O)NC3CCCC3)c2=O)cc1Cl
27	CC(C)(C)OC(=O)N[C@@H](Cc1ccccc1)C(=O)N1CCC(C(=O)NCC(=O)O)CC1
28	O=C(Cc1c(F)cccc1Cl)Nc1ncc([N+](=O)[O-])s1
29	COc1ccc(OC)c(NC(=O)CN2C(=O)NC3(CCCc4ccccc43)C2=O)c1 (stereo unspecified)
30	O=C(Nc1nccs1)c1cccc(N2C(=O)C3C4C=CC(C4)C3C2=O)c1 (stereo unspecified)
31	CC(=O)Nc1ccc(S(=O)(=O)N2C(=O)c3cccc4cccc2c34)cc1
32	Cc1ccc(C)c(NC(=S)N/N=C/C(C)c2ccccc2)c1 (stereo unspecified)
Compound	25	26	27	28	29	30	31	32
LANA-H2B inh	0.1	/	2.1	0.5	/	-3.6	0.0	-0.8
FGF22 binding	i	/	i	i	i	/	/	i
ALR H2O2 inh	-4.9	/	-1.0	/	/	-4.7	-15.8	/
Ecoli growth	0.657	0.671	0.68	0.553	0.632	/	0.721	/
HNF4A DNA FP	-3.7	-0.9	-1.1	-0.3	-0.7	-2.7	/	-3.0
B2AR ag	-6.3	8.5	-0.2	6.6	1.7	-9.7	/	2.8
UCH37 inh	-0.7	-126.2	0.0	10.3	0.8	29.1*	-84.1	/

33	Clc1ccccc1Cn1nnc(-c2ccccc2)n1
34	Cc1nn(CC(=O)NC2(C#N)CCCCC2)c(C)c1[N+](=O)[O-]
35	COc1cc(NC(=O)CCNS(=O)(=O)c2ccc3c(c2)CCC(=O)N3)cc(OC)c1
36	Cc1c(-n2c(SCC(=O)O)nnc2-c2ccccc2Br)c(=O)n(-c2ccccc2)n1C
37	O=C(CNc1ccc2ccccc2c1)N/N=C/C=C/c1cccc([N+](=O)[O-])c1
38	Cc1cccc(NCc2ccccc2O)n1
39	CCN(CC(=O)Nc1ccc(OC)cc1)C(=O)CSCc1ccc(C)cc1
40	CSc1ccc(C(=O)C2CCCN(C(=O)CCn3cncn3)C2)cc1 (stereo unspecified)
Compound	33	34	35	36	37	38	39	40
LANA-H2B inh	-3.4	-1.3	-1.2	-5.6	1.0	-6.6	-0.1	-2.8
FGF22 binding	/	i	i	/	i	/	i	i
ALR H2O2 inh	-0.8	5.1	-3.2	/	-12.3	24.7	-1.7	-4.0
Ecoli growth	0.721	0.661	0.71	0.693	/	0.711	0.666	0.629
HNF4A DNA FP	-2.8	0.8	-2.7	-1.9	-3.4	2.3	-1.6	-0.8
B2AR ag	6.7	-2.6	0.1	2.7	-4.3	11.2	-6.5	0.1
UCH37 inh	1.6	-0.2	5.3	0.7	/	4.6	1.1	1.1

41	CSc1nc(N)n2nc(-c3ccc(Cl)cc3)cc2n1
42	CCOC(=O)c1cnn(-c2nc(SC)nc3sc4c(c23)CCC4)c1N
43	CCn1c(SCC(=O)Nc2ccccc2F)nnc1-c1cnccn1
44	Cc1cc(=O)[nH]c2c(C)cc(S(=O)(=O)N3CCOCC3)cc12
45	COC(=O)COc1ccc(S(=O)(=O)N2CCOCC2)cc1C
46	O=C(/C=C/c1cn(-c2ccccc2)nc1-c1ccc2c(c1)OCCO2)NCCO
47	CCC(=O)N1N=C2CC(C)(C)OCC2C1c1ccccc1 (stereo unspecified)
48	CCCNC(=S)NNC(=O)c1cc(C2CC2)nc2ccccc12
Compound	41	42	43	44	45	46	47	48
LANA-H2B inh	2.1	-5.1	12.6	3.4	5.3	5.3	7.1	-4.7
FGF22 binding	i	/	i	i	/	i	/	i
ALR H2O2 inh	-9.2	-1.5	-12.7	/	-1.8	-9.9	-0.3	23.4
Ecoli growth	0.715	0.723	0.688	0.714	0.732	/	0.707	0.666
HNF4A DNA FP	-3.0	0.6	-5.8	-5.1	1.0	4.2	-0.3	-1.1
B2AR ag	-0.9	-6.6	-6.0	3.3	15.3	-14.5	1.8	6.1
UCH37 inh	4.5	-0.8	1.9	4.6	3.1	-10.2	2.7	4.4

49	CSCCNC(=O)c1ccc(OC2CCN(S(=O)(=O)N(C)C)CC2)cc1
50	CCOC(=O)C1(CCOc2ccccc2)CCN(Cc2ccc(NC(C)=O)cc2)CC1
51	CCc1ccc(-c2cc(C(=O)NN3CCOCC3)c3ccccc3n2)s1
52	CC(C)(C)NC(=O)COc1coc(CN2CCN(Cc3ccccc3)CC2)cc1=O
53	COC(=O)C[C@H]1c2ccccc2S(=O)(=O)N1C(C)C
54	O=C(Nc1ccc(Cl)cn1)C1CCCN1S(=O)(=O)c1ccc(Cl)cc1 (stereo unspecified)
55	COc1ccc(C2CC2/C(C)=N/OC(=O)c2ccc(F)cc2)cc1 (stereo unspecified)
56	O=C(NCc1ccccn1)Nc1cccc(Cl)c1
Compound	49	50	51	52	53	54	55	56
LANA-H2B inh	2.1	-0.8	-1.4	-5.2	5.6	-4.9	-3.1	3.9
FGF22 binding	i	i	i	i	i	/	i	i
ALR H2O2 inh	-5.7	3.0	/	-4.4	/	0.1	-17.8	6.9
Ecoli growth	0.712	0.68	0.69	0.604	/	0.706	/	0.637
HNF4A DNA FP	-1.4	-2.0	10.2	0.3	-4.6	2.5	1.0	-0.2
B2AR ag	5.4	-1.8	6.2	4.3	-2.6	-16.4	3.7	-1.9
UCH37 inh	6.0	1.3	i	-1.6	0.1	1.1	/	0.5

57	COc1cc(C(C(=O)NC2CCCC2)N(Cc2ccco2)C(=O)c2snc(C(N)=O)c2N)cc(OC)c1OC (stereo unspecified)
58	O=C1c2ccccc2NC(c2ccc(-c3ccccc3F)o2)N1O (stereo unspecified)
59	Cc1ncc([N+](=O)[O-])n1Cc1ccccc1F
60	O=C(NCCc1ccc(O)cc1)c1ccc(Cl)cc1
61	C[C@H]1CCC[C@]2(O[C@H](CCO)C[C@H](O)[C@H]2O)O1
62	COC(=O)CSc1nc2cc3c(cc2cc1C)OCO3
63	CS(=O)(=O)Nc1cccc(C(=O)CC2(O)C(=O)Nc3ccccc32)c1 (stereo unspecified)
64	C#CCOCCOCCOCCNc1nc(N2CCN(C(=O)[C@H]([C@@H](C)CC)n3cc(CCCN=C(N)N)nn3)CC2)nc(N2CCN(C(=O)[C@H](CCCCN)n3cc(CCC(=O)O)nn3)CC2)n1
Compound	57	58	59	60	61	62	63	64
LANA-H2B inh	-0.6	-1.2	1.1	3.3	1.6	1.8	9.4	1.2
FGF22 binding	i	i	i	/	i	i	/	i
ALR H2O2 inh	-5.1	43.6	-0.7	79.2*	-10.8	21.0	1.1	-13.4
Ecoli growth	0.63	0.647	0.696	0.603	/	0.733	0.743	/
HNF4A DNA FP	3.4	15.5	-2.1	2.5	0.6	1.4	-2.2	-2.4
B2AR ag	0.5	5.0	-5.8	12.2	4.1	7.9	8.2	-5.1
UCH37 inh	-72.4	-0.7	3.7	31.4*	4.3	3.1	0.0	3.9

Only part of the results is shown (hit frequency here may not be typical).
